# Vaccinia Venus = qHTS for Stage-Specific Inhibitors of Vaccinia Orthopoxvirus: Venus Reporter Primary qHTS. Vaccinia virus Venus reporter expression, fluorescence. Potency, µM (titrated, usually from 36.5 µM), without a hit: top-dose activity change, negative = inhibition, most hits filed as inhibitors. 330,000 compounds, 0.46% hits. AID 720580, 2013; active means well fitted inhibition curve with a large enough effect; inconclusive means small, poorly fitted or top-dose-only effect; inactive means no such curve, though single readings can be large or run the other way; tested in A549 cells; also: nearly all actives have a fitted effect of over 30% in size; inactives centre near -10
# Vaccinia mCherry = qHTS for Stage-Specific Inhibitors of Vaccinia Orthopoxvirus: mCherry Reporter Primary qHTS | Vaccinia virus mCherry reporter infection, fluorescence; about a quarter of the inactives have no number | Potency, µM (doses to about 36.5 µM), inactives show top-dose activity change, negative = inhibition, hits mostly inhibitors | AID 720579, 2013 | 310,000 compounds, 0.63% hits; active = well fitted inhibition curve with a large enough effect; inconclusive = small, poorly fitted or top-dose-only effect; inactive = no such curve, though single readings can be large or run the other way; tested in A549 cells; also: nearly all actives have a fitted effect of over 35% in size; inactives centre near -10
# Starred values were filed as active, the others as inactive; i = inactive; ? = inconclusive; · = no result given; [ ] = dose if it differs, or a comment. % is scaled to controls: 0 for no effect and ±100 for the full control effect; potency is read from the fitted curve at half-maximal effect. An unsorted share of the library. Share with any hit: about 0.86%.
entry	structure	Vaccinia Venus	Vaccinia mCherry
1	COc1ccc(Cl)cc1-c1noc([C@@H]2O[C@H](CO)[C@@H](O)[C@H]2O)n1	-7%	35%[activator]
2	COc1ccc(C(=O)NCc2ccc3c(c2)CCN3C(C)=O)cc1OC	-17%	-14%
3	Cc1cccc(C)c1-n1nnnc1C1(C)CCC(=O)N1CC(F)(F)F (stereo not drawn)	-2%	-1%
4	COc1ccc(CCNC(=O)CN(c2ccc(OC)cc2)S(C)(=O)=O)cc1	4%	1%
5	CCOc1ccc(S(=O)(=O)NCCC(=O)N2CCCC(C)C2)cc1 (stereo not drawn)	-12%	i
6	Cc1cc(Cl)ccc1NC(=S)NCC(O)c1ccccc1 (stereo not drawn)	-24%	-24%
7	N#CN=c1snc(-c2ccccc2)n1-c1ccc(Cl)cc1	3.5µM*	5.6µM*
8	COCC(C)NS(=O)(=O)c1ccc(C(=O)NCCCn2ccc3ccccc32)cc1 (stereo not drawn)	-19%	i
9	COC(=O)c1cc(C(=O)N2CCN(c3ncccn3)CC2)cc([N+](=O)[O-])c1	-15%	-24%
10	Cc1cc(C)c(S(=O)(=O)Nc2ncn[nH]2)c(C)c1	-8%	i
11	O=C(NC(=S)Nc1ccc(N2CCOCC2)cc1)c1cncc(Br)c1	-2%	-13%
12	CN(C)c1ccnc(C(=O)O)c1	-5%	i
13	CSCC[C@H](NC(=O)OC(C)(C)C)c1nnc(SCc2ccc(F)cc2)o1	?	·
14	CC(/C=C/c1ccccc1)=N\NC(=O)Cn1cncn1	-8%	-14%
15	O=C(COC(=O)CNC(=O)c1ccccc1)Nc1ccc(S(=O)(=O)N2CCOCC2)cc1	-11%	-24%
16	O=C(Nc1ccc2c(c1)N(S(=O)(=O)c1cccs1)CCC2)c1c(F)cccc1F	-14%	?
17	COc1ccc(CN2CCN(c3ncnc4sc5c(c34)CCCC5)CC2)cc1F	?	?
18	O=C(Nc1ccccc1)c1nsnc1C(=O)Nc1ccccc1	-12%	-10%
19	CCOc1ccccc1NC(=O)N1CCC(NC(=O)c2ccccc2C)CC1	-11%	0%
20	O=c1oc2ccc3ccccc3c2cc1-c1nnc(Nc2ccc(Cl)cc2Cl)s1	-3%	5%

# Quoted from the listing:
# In Vaccinia Venus, `O=c1oc2ccc3ccccc3c2cc1-c1nnc(Nc2ccc(Cl)cc2Cl)s1` is listed with -3%
# In Vaccinia mCherry, `CCOc1ccccc1NC(=O)N1CCC(NC(=O)c2ccccc2C)CC1` is listed with 0%

# (list continues)
entry	structure	Vaccinia Venus	Vaccinia mCherry
21	NS(=O)(=O)c1ccc(NC(=O)COC(=O)COc2ccc(Cl)cc2)cc1	-19%	-11%
22	O=C(c1ccc2c(=O)n(CCc3ccccc3)c(=O)[nH]c2c1)N1CCN(c2ccc(Cl)cc2)CC1	-30%	-28%
23	CCCOc1ccc(C(=O)N2CCCC2C(=O)O)cc1 (stereo not drawn)	-11%	-14%
24	O=C(NCCN1CCCCC1)Nc1cccc(F)c1	-14%	i
25	Cc1ccc(S(=O)(=O)NC2c3cccc4cccc(c34)C2Sc2nc(C)cc(C)n2)cc1 (stereo not drawn)	-13%	-11%
26	Cc1ccc(N2CCC3CC2c2cc(-c4ccc(C(F)(F)F)cc4)ccc23)cc1 (stereo not drawn)	-9%	-13%
27	COc1cc(C)ccc1OCCOCCOc1ccccc1Br	-3%	-6%
28	Cc1nc(CNS(=O)(=O)c2ccc(Oc3ccccc3)cc2)cs1	-25%	-22%
29	Cc1cc(OCC(=O)NC(C)C)ccc1Cl	-19%	i
30	CCOC(=O)C(C)Sc1ncnc2c1c(-c1ccccc1)cn2-c1ccc(OC)cc1 (stereo not drawn)	-12%	-18%

# Entries of single compounds, quoted from the list. Order of values: Vaccinia Venus	Vaccinia mCherry
# Results for O=c1oc2ccc3ccccc3c2cc1-c1nnc(Nc2ccc(Cl)cc2Cl)s1 : -3%	5%
# Results for COc1cc(C)ccc1OCCOCCOc1ccccc1Br : -3%	-6%
# Results for N#CN=c1snc(-c2ccccc2)n1-c1ccc(Cl)cc1 : 3.5µM*	5.6µM*

# (more compounds)
entry	structure	Vaccinia Venus	Vaccinia mCherry
31	CCCCOc1cc(CC2CNC(=O)N2)ccc1OC (stereo not drawn)	-8%	-19%[60.7 µM]
32	OCCC1CN(CCCn2cccn2)CCN1Cc1ccccc1 (stereo not drawn)	0%	-1%
33	CC(=O)c1ccc(S(=O)(=O)Nc2ccc(C(=O)NCC(c3cccs3)N3CCOCC3)cc2)cc1 (stereo not drawn)	-15%	-1%
34	Cc1cc(C)cc(NC(=O)/C=C/c2ccc([N+](=O)[O-])s2)c1	-6%	-30%
35	CCCCOCCCNC(=O)C[C@@H]1C[C@@]2(C(=O)OCC)CCC=C2N(Cc2ccco2)C1=O	0%	13%
36	Cn1c(=O)c2c(nc(SCC(=O)c3ccc(F)cc3)n2C)n(C)c1=O	-1%	5%
37	CN(C)CCc1c[nH]c2ccc(CS(=O)(=O)N3CCCC3)cc12	-4%	-10%
38	N=C1c2ccccc2CN1CC(=O)c1ccccc1	-13%	-13%
39	NCC(=O)c1cccc2ccc[n+]([O-])c12	-6%	-15%
40	COc1ccc(CNC2CC(C)N(C)CC2C)cc1OC (stereo not drawn)	-8%	i
41	COc1ccc(NC(=O)c2cccc3cccnc23)cc1S(N)(=O)=O	0%	-4%
42	O=C(CSc1nnc(-c2ccncc2)n1C1CC1)c1cccs1	-4%	-1%
43	O=C(CCCCCN1C(=O)c2cccc3cccc(c23)C1=O)NCc1ccco1	-13%	i
44	CN1C2CCC1CC(NC(=O)CSCc1ccc(Cl)cc1Cl)C2 (stereo not drawn)	-13%	i
45	Cc1ccc(/C=N/NC(=O)CC2N=C(Cc3ccccc3)NNC2=O)cc1 (stereo not drawn)	-17%	-5%
46	COc1ccc2c(c1)CC(C(=O)Nc1c(C)cc(C)cc1C)CO2 (stereo not drawn)	-20%	-3%
47	COc1ccc(CNS(=O)(=O)c2ccc3c(c2)N(C(C)=O)CC(C)S3)cc1 (stereo not drawn)	-15%	0%
48	CCCn1c(SCC(=O)N2CCOCC2)nnc1-c1ccncc1	2%	-13%
49	COCCNc1nc(-c2ccccc2CN(C)C)nc2ccccc12	-1%	-2%
50	O=C(NCC1CCCO1)C1CC(=O)N(C2CCCCCC2)C1 (stereo not drawn)	-8%	-16%
51	O=C(c1ccco1)N1CCN(S(=O)(=O)c2cccc([N+](=O)[O-])c2)CC1	-1%	-1%
52	Cc1ccc(S(=O)(=O)NCc2ccccc2)cc1C(=O)NCC(C)(C)N1CCOCC1	-15%	-20%
53	CN1CCN(c2nnc(-c3cccs3)c3ccccc23)CC1	-19%	-11%
54	Cc1noc(C)c1S(=O)(=O)NC(=O)C1(C)CCN1C(=O)C1(c2ccc(Cl)cc2)CCC1 (stereo not drawn)	-9%	-8%
55	COc1ccc(N(CC(=O)N2c3ccccc3CC2C)S(=O)(=O)c2c(C)nn(C)c2C)cc1 (stereo not drawn)	-9%	i
56	CC(C)Nc1nc(NCCOc2ccccc2)c2sccc2n1	?	-8%
57	COc1ccccc1Cn1c(CNS(=O)(=O)c2c(C)cc(C)cc2C)nc2cccnc21	-7%	-16%
58	Cc1cc(Cl)ccc1N1C(=O)CC(SCCC(=O)O)C1=O (stereo not drawn)	-6%	·
59	Cc1cc(C)c(/C=C/c2onc(C)c2S(=O)(=O)N2CCC(C(=O)Nc3ccc(Cl)cc3C)CC2)c(C)c1	-8%[7.34 µM]	-5%[7.34 µM]
60	O=C(Nc1ccc2c(c1)OCCO2)c1ccccc1Cl	-4%	-11%
61	CCOC(=O)c1ccccc1NC(=O)N[C@@H](C)C(=O)OC	-2%	-3%
62	COc1ccc(C2Oc3c(I)c(OC)cc(OC)c3CC2O)cc1OC (stereo not drawn)	?	-4%
63	CC(C)Oc1ccc(CCC(=O)NNC(=O)c2ccccc2C(=O)O)cc1	-9%	-5%
64	CCc1nccn1S(=O)(=O)c1ccc2ccccc2c1	-11%	·
65	CCOC(=O)c1ccc(NC(=O)CN2C(=O)C(C)(C)c3ccccc32)cc1	-20%	-22%
66	CC(C)c1ccc(S(=O)(=O)N2CCN(C(=O)CCNS(=O)(=O)c3ccccc3F)CC2)cc1	-24%	?
67	CC(C)OC(=O)C(C#N)c1nc2ccccc2nc1N1CCN(Cc2ccccc2)CC1 (stereo not drawn)	1%	·
68	Cc1cc(C)n(CCNC(=O)c2ccc3c(c2)OCO3)n1	22%	8%
69	CCCCNc1c(-c2cccc(-c3ccc(OC)cc3)c2)nc2ccc(C)cn12	?	13µM*
70	O=C(CCn1cccc1)Nc1cc(F)ccc1F	1%	·
71	N#Cc1cn(Cc2ccncc2)c(=O)[nH]c1=O	-16%	-27%
72	O=C(Nc1ccccc1C(F)(F)F)N1CCC2(CC1)Oc1ccccc1C(=O)N2Cc1ccccc1F	-20%	-16%
73	O=C(OC1CCOC1=O)c1cc(-c2ccc(Cl)cc2)nc2ccccc12 (stereo not drawn)	-7%	-11%
74	CCN(CC)C(=N)N1c2ccccc2CCC1C (stereo not drawn)	-2%	-6%
75	Cc1cc(C)c2c(N)c(C(=O)Nc3cccc(C)c3C)sc2n1	-24%	-4%
76	Cc1ccc(Nc2nc(N/N=C/c3c[nH]c4ccccc34)nc(N3CCOCC3)n2)cc1	?	?
77	O=C(Cc1nnc(NC(=O)Nc2ccc(Cl)cc2)s1)NCc1ccccc1	-7%	i
78	COC(=O)c1ccc(/C=C2/SC(=S)N(CCCC(=O)Nc3ccccn3)C2=O)cc1	-8%	i
79	Cc1cc(NS(=O)(=O)c2ccc(NC(=O)CCCOc3ccccc3C)cc2)no1	-3%	i
80	CCCS(=O)(=O)NC(=O)C1(C)CCCN(C(=O)c2ccc(F)c(Cl)c2)C1 (stereo not drawn)	1%	5%

# Arranged by heavy-atom count (ascending): 3 of the compounds above
entry	structure	Vaccinia Venus	Vaccinia mCherry
75	Cc1cc(C)c2c(N)c(C(=O)Nc3cccc(C)c3C)sc2n1	-24%	-4%
77	O=C(Cc1nnc(NC(=O)Nc2ccc(Cl)cc2)s1)NCc1ccccc1	-7%	i
72	O=C(Nc1ccccc1C(F)(F)F)N1CCC2(CC1)Oc1ccccc1C(=O)N2Cc1ccccc1F	-20%	-16%

# Further results follow.
entry	structure	Vaccinia Venus	Vaccinia mCherry
81	C=C(C)C(=O)Nc1cccc(C2=NOC3(C2)C[C@@H](C(N)=O)N(C(=O)c2cc([N+](=O)[O-])cc([N+](=O)[O-])c2C)C3)c1 (stereo partly drawn)	-8%	-16%
82	O=C(C[C@H]1C[C@H](C(=O)N2CCOCC2)[C@@]2(CCC3CCCC3)c3[nH]c4ccc(Cl)cc4c3CCN2C1=O)NCCCn1ccnc1	?	?
83	Cc1ccc(S(=O)(=O)N(CC(=O)Nc2ccccc2C(=O)O)c2cccc(Cl)c2C)cc1	-4%	-11%
84	O=C(c1cc(-c2ccc(Cl)cc2)nc2ccccc12)N1CCOCC1	-17%	-21%
85	O=C(Nc1nc2ccc(F)cc2s1)c1nc(SCc2ccccc2F)ncc1Cl	-20%	-17%
86	CCN(CC)c1ccc(C(=O)OCC(=O)NC(C)(C)C)cc1	-12%	-21%
87	CCn1cc(C(=O)NCCCOC(C)C)c(=O)c2cc(S(=O)(=O)N(C)C3CCCCC3)ccc21	-13%	-24%
88	CCSc1nnc(NC(=O)CCCOc2ccc(C)cc2)s1	-18%	i
89	COc1ccc(C(=O)Nc2ccccc2C(=O)NCc2cccnc2)cc1	-30%	-18%
90	O=C(Nc1ccc2c(c1)C(=O)NC2=O)c1ccc(S(=O)(=O)N2CCCC2)cc1	-6%	2%
91	COc1ccc(NC(=O)Cn2nc(SC)c(S(=O)(=O)c3ccc(C)cc3)c2N)cc1OC	-7%	-13%
92	C[C@]12CCC3c4ccc(OCC(=O)O)cc4CCC3C1CCC2=O (stereo partly drawn)	-13%	i
93	CC(C)n1c(=S)[nH]c2cc(C(F)(F)F)ccc21	9%	2%
94	S=C(NN=C1CCCCCC1)Nc1ccc(Cl)cc1	-3%	i
95	COC(=O)CCC(=O)OC1(C)C(=O)C=C2C=C(C3CC3)N(Cc3ccc4c(c3)OCO4)C=C2C1=O (stereo not drawn)	2%	i
96	COc1cccc(NC(=O)C2C3C=CC4(O3)C2C(=O)N(CCN2CCCCC2)C4C(=O)NC2CCCCC2C)c1 (stereo not drawn)	-20%	-8%
97	CC12CCC3C(CCC4C/C(=N/O)CCC43C)C1CCC2O (stereo not drawn)	-8%	i
98	Cc1cccc(C)c1-n1c(C)nn(-c2ncc(C(F)(F)F)cc2Cl)c1=O	-9%	-4%
99	COc1ccc(N2CC(C(=O)Nc3ncccc3C)CC2=O)cc1 (stereo not drawn)	0%	·
100	O=c1nc(N2CCOCC2)ccn1-c1nc(-c2ccccc2)oc1-c1ccccc1	0%	-4%
101	COC(=O)CSc1nnc(C)n1-c1cccc(C#N)c1	-10%	-9%
102	Cc1onc(-c2ccccc2)c1C(=O)NC(CC(=O)O)c1ccc(OC(C)C)cc1 (stereo not drawn)	-6%	-9%
103	C=CCn1cc(C(=O)N2CCc3ccccc3C2)c(=O)c2cc(S(=O)(=O)N(CC)CC)ccc21	-14%	i

# Shown with two lines to a compound: 2 of the compounds above
# Values run as follows: Vaccinia Venus	Vaccinia mCherry
[98] Cc1cccc(C)c1-n1c(C)nn(-c2ncc(C(F)(F)F)cc2Cl)c1=O
 : -9%	-4%
[99] COc1ccc(N2CC(C(=O)Nc3ncccc3C)CC2=O)cc1 (stereo not drawn)
 : 0%	·

# Screening results as filed in PubChem.
